# Screening results from PubChem BioAssay.
# RGS16-Gao – modulates binding between human RGS16 and Galphao | binding response (% of control), % at 10 µM | O15492+P09471 | bead-based flow cytometry RGS16-Galphao binding, fluorescence; actives lie on both sides | AID 1441 | hit rate 0.38% among 220,000;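 active = below 25% or above 175%, edge rows of some plates excepted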;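 note: Galphao activated by GDP with aluminum fluoride before binding; 100% = wells without compound and 0% = beads without RGS; some results beyond the cut were filed as inactive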
# GALR2 ag – activates the human galanin receptor 2. activation, %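 (tested at 5 µM)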. GALR2-expressing cells, agonist activation read-out. hit rate 0.48% among 140,000. O43603;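 active = above mean plus 3 SD of all compounds, about 5% in these data, not always enough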;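 note: 0% = vehicle buffer wells and 100% = reference agonist at full effect; tested in CHO reporter cells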
# PKD1 inh – blocks activity of human protein kinase D1 | inhibition, %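 (about 10 µM by stock and volumes)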 | hit rate 0.056% among 200,000 | PKD1 kinase fluorescence polarization assay | AID 797;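 active = inhibition of 50% or more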;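 note: controls were vehicle for no effect and a reference inhibitor for full effect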
# Target sequence (Q15139 whole entry, looked up): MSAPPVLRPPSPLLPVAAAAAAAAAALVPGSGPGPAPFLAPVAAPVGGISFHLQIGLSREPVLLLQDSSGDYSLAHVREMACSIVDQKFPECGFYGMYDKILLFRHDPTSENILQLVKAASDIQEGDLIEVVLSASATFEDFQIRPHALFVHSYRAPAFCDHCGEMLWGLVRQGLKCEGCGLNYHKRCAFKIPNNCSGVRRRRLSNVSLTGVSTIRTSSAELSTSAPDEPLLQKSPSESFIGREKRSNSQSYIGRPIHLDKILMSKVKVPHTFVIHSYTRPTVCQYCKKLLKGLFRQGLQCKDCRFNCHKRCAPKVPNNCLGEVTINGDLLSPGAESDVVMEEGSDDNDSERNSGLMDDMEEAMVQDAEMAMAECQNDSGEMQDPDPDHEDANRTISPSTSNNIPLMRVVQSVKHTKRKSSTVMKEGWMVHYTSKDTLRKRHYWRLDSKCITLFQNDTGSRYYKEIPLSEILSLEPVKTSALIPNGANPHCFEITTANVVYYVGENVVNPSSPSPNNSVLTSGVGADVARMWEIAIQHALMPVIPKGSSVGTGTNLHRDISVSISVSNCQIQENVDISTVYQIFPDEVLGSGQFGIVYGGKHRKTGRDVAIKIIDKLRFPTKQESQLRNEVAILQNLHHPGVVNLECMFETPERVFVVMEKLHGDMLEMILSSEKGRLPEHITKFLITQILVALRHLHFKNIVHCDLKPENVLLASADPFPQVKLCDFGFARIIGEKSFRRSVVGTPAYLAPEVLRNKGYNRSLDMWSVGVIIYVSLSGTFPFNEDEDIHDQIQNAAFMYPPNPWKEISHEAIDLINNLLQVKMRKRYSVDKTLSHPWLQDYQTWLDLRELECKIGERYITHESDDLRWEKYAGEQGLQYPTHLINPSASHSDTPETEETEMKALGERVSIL
# HSV augment – HSV replication enhancement. HSV replication augmentation in cells, fold increase. maximum fold increase. hit rate 0.005% among 220,000. AID 1956;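 active = peak rise of 1.5-fold or more in the series; tested in PC3 cells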;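 note: first round at 10 µM; read as green reporter fluorescence; hits show the peak of a series up to 25 µM; 1 = signal of infected wells without compound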
# Insulin prom inh – TRM-6 insulin promoter activity inhibition. hit rate 0.9% among 130,000. inhibition, % at 2 µM. TRM-6 cells (human fetal islet line), insulin promoter-eGFP reporter, imaging; reporter expression induced with tamoxifen;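 active = inhibition above the mean plus 3 SD, with well images judged a real hit on visual review, cut at about 60% in these data, passing the limit was not always enough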
# Insulin prom inh cell count – further read-out of Insulin prom inh, marked with its call; normalized cell count, %; measured here: cell count, toxicity; reference of the scale not given here;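 cells exposed to compound for 48 h; stained nuclei by imaging scaled within each plate; lower means fewer cells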
# HSV augment primary fold – also measured in HSV augment; calls as there; fold increase; compound at 10 µM; measured here: primary screen fold increase 10 uM; tested in PC3 cells;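 GFP signal in the first replicate; 1 = infected wells without compound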
# Active calls of the source: *; i = inactive; . = no result given.
no.	mol	HSV augment primary fold	PKD1 inh	Insulin prom inh	HSV augment
1	COC(=O)C1=C(CN2CCN(C)CC2)NC(=O)NC1c1cc(C)ccc1C (centres undefined)	1	-4	18	i
2	Cc1ccc(Nc2c(-c3ccc(C)o3)nc3cnccn23)cc1	1	-10	.	i
3	c1ccc(-c2nc(Sc3ncnc4c3cnn4-c3ccccc3)n[nH]2)cc1	.	-15	44	.
4	CCOc1ccc(NC(=O)CCSc2ccc(C)cc2)cc1	1	-6	0	i
5	COc1ccc(Cc2noc(CN3CCN(Cc4cccc(Cl)c4)CC3)n2)cc1OC	1.1	4	.	i
6	CC(=O)c1ccc(OC(=O)c2cccs2)cc1	0.88	-5	25	i
7	Cc1cc(C)c2c(n1)nn1c(N3CCN(c4ccccc4)CC3)cc(C)nc21	0.82	-10	40	i
8	CCOC(=O)CN1C(=O)CSc2ccc(S(=O)(=O)N3CCCC3)cc21	1.2	.	.	i
9	O=C(Nc1ccc(Cl)cc1Cl)NC1CCCC1	1.1	-10	19	i
10	Cc1cc2c(cc1S(=O)(=O)Nc1cccc(F)c1C)NC(=O)CO2	1	3	.	i
11	CC1(C)CC(=O)c2sc(NS(=O)(=O)c3ccc(Br)cc3)nc2C1	0.93	6	.	i
12	O=C1COc2ccc(C(=O)CCl)cc2N1	1	.	.	i

no.	RGS16-Gao	GALR2 ag	Insulin prom inh cell count
1	98	0.5	48
2	95	-1.9	.
3	102	-0.6	58
4	107	-0.7	109
5	101	.	.
6	103	-0.6	64
7	71	-0.1	78
8	100	.	.
9	109	.	129
10	105	.	.
11	100	.	.
12	101	.	.

# Going on with the list:
no.	mol	HSV augment primary fold	PKD1 inh	Insulin prom inh	HSV augment
13	CC(C)(C(N)=O)N1CCN(c2ncc(C(F)(F)F)cc2Cl)CC1	1.1	-6	3	i
14	N#Cc1nc(COc2ccccc2Cl)oc1N1CCCC1	0.95	-6	13	i
15	Cc1cc(NC(=O)CCC(=O)N(CC(=O)NC2CCCC2)Cc2ccco2)no1	0.83	-4	3	i
16	COCC(C)n1c(C)cc(C(=O)CSc2cc(C)c3ccccc3n2)c1C (centres undefined)	1.1	6	-85	i
17	CC(Nc1cc(N2CCN(C(=O)C(C)(C)C)CC2)ccc1[N+](=O)[O-])c1ccccc1 (centres undefined)	1	-5	-13	i
18	COc1cc(C(=O)Nc2ccc(N(C)C)cc2)cc(OC)c1OC	0.92	-22	.	i
19	CCc1ccc(C(=O)Nc2ccc(S(=O)(=O)Nc3nc(C)cc(C)n3)cc2)o1	1.1	-3	51	i
20	O=C(Nc1cccc(F)c1)C1CCCN1S(=O)(=O)c1cccc2cccnc12 (centres undefined)	0.93	-12	.	i
21	Cc1ccc(CN(Cc2ccccc2)C(=S)Nc2ccccc2C)o1	0.84	0	-33	i
22	O=C(NCCc1csc(-c2ccccc2)n1)c1ccccc1F	1.3	.	.	i
23	O=C(OCN1C(=O)c2ccccc2C1=O)c1ccccc1	0.82	-5	32	i
24	CCN(CC)C(=O)c1ccc2c(c1)N(Cc1ccccc1)C(=O)CS2=O (centres undefined)	1	-3	.	i

no.	RGS16-Gao	GALR2 ag	Insulin prom inh cell count
13	90	-0.8	84
14	110	.	108
15	-11	-2.3	73
16	99	-1.8	127
17	97	-1.4	117
18	98	-3.0	.
19	74	-2.1	124
20	103	-2.3	.
21	95	.	189
22	101	.	.
23	40	-1.1	96
24	99	-0.5	.

# (further entries)
no.	mol	HSV augment primary fold	PKD1 inh	Insulin prom inh	HSV augment
25	O=C(CCc1ccc(S(=O)(=O)NC2CCCCC2)cc1)NCc1ccc(Cl)cc1	0.92	-2	-80	i
26	CCOC(=O)C1=C(C)N(CC(C)C)C(=O)/C1=C\c1cccs1	1	.	.	i
27	Cc1noc(C)c1C(=O)NCc1ccccc1F	0.99	-4	.	i
28	O=C1CCCN1c1cc(Cl)ccc1Cl	1.1	-5	0	i
29	CCC(=O)Oc1ccc(C(=O)Nc2ccc3c(c2)C(=O)N(C2CCCCC2)C3=O)cc1	0.78	5	-7	i
30	O=C(Cc1ccc(Br)cc1)OCC(=O)c1ccc2c(c1)OCCO2	1	0	14	i
31	Cn1nc(C(C)(C)C)cc1C(=O)Sc1cccc(Br)c1	1	.	.	i
32	COc1ccc(OC)c(N2C(=O)C(Cl)=C(N3CCOCC3)C2=O)c1	0.86	4	0	i
33	CN(CC(=O)N1CCc2ccccc2C1)S(=O)(=O)c1ccc2c(c1)c(=O)n(C)c(=O)n2C	1.1	-15	.	i
34	Cc1ncc([N+](=O)[O-])n1CC(=O)NCc1ccccc1	0.89	-4	7	i
35	O=C(OCCCN=C1NS(=O)(=O)c2ccccc21)c1ccc(F)cc1	0.94	2	-20	i
36	CCC(NC(=O)OC(C)(C)C)C(=O)Oc1ccc2c3c(c(=O)oc2c1)CCC3 (centres undefined)	0.8	-4	.	i

no.	RGS16-Gao	GALR2 ag	Insulin prom inh cell count
25	94	-1.2	66
26	96	.	.
27	108	.	.
28	109	-0.4	49
29	97	0.2	140
30	39	-0.6	69
31	97	.	.
32	94	-1.3	136
33	103	0.2	.
34	112	-2.5	84
35	35	-3.3	116
36	105	-1.1	.

# Continued:
no.	mol	HSV augment primary fold	PKD1 inh	Insulin prom inh	HSV augment
37	Cc1ccc(NC(=O)/C=C/c2cccc(C(F)(F)F)c2)cc1	0.87	3	.	i
38	COc1ccccc1-c1cc(C(=O)NCc2ccc(Cl)cc2)no1	0.89	-18	.	i
39	CNc1nc(C(=O)O)nc(N2CCOCC2)n1	0.92	-4	-272	i
40	CC(=O)c1ccc(OCc2cc(=O)n3ccsc3n2)cc1	0.92	6	13	i
41	Cc1ccc(S(=O)(=O)N2CCN(CC(=O)Nc3ccc4c(c3)CCC4)CC2)cc1C	0.81	7	23	i
42	COc1cc(NC(=O)COC(=O)CNC(=O)c2ccc(C)cc2)c(C)cc1[N+](=O)[O-]	0.98	-3	.	i
43	COc1ccc([C@H]2[C@H](C(=O)OC(C)(C)C)N3N=Cc4ccccc4C3C23C(=O)c2ccccc2C3=O)cc1OC (some centres undefined)	1	-6	-43	i
44	COc1ccc(Cc2nnc3c4cnn(C)c4ncn23)cc1	1	5	3	i
45	CCOC(=O)C1(Cc2ccccc2)CCN(Cc2cccc3c2OCO3)CC1	0.93	1	.	i
46	CN(c1ccccc1)S(=O)(=O)c1ccc(Cl)c(C(=O)Nc2ccc(N3CCOCC3)cc2)c1	1	0	-57	i
47	COc1ccc(-c2[nH]ncc2CNCCc2ncccc2C)cc1F	1	-9	.	i
48	Cc1cc2ccc(C)c(C)c2nc1SCC#N	0.97	-8	7	i

no.	RGS16-Gao	GALR2 ag	Insulin prom inh cell count
37	104	-1.9	.
38	99	-2.1	.
39	95	-0.9	66
40	102	-2.4	95
41	106	-0.7	138
42	97	-2.5	.
43	100	0.8	75
44	101	-1.0	109
45	106	.	.
46	100	.	127
47	108	.	.
48	101	2.0	96

# (next part)
no.	mol	HSV augment primary fold	PKD1 inh	Insulin prom inh	HSV augment
49	CCCCc1nnc(NC(=O)CSc2nc(N)cc(=O)[nH]2)s1	1.1	10	.	i
50	CC1(c2ccc3noc(-c4ccc(Cl)cc4)c3c2)OCCO1	1.1	0	.	i
51	COc1ccc(/C=N\NC(=O)COc2ccccc2Cl)cc1Cn1nc(C)cc1C	1.1	-2	-11	i
52	O=C(O)CSCC(=O)NCc1csc2ccc(Cl)cc12	0.95	.	.	i
53	O=C(CN1C(=O)NC2(CCCc3ccccc32)C1=O)N1CCN(C(=O)c2ccco2)CC1 (centres undefined)	0.97	14	14	i
54	OCC1CCCN(Cc2ccc(-c3ccccc3)cc2)C1 (centres undefined)	1	13	64	i
55	O=C(c1c(Cl)cccc1Cl)N1CCN(c2ccccn2)CC1	1.4	-3	18	i
56	Cc1ccc(S(=O)(=O)/N=C/N(C)C)cc1	0.96	-7	13	i
57	CC1=CC(C)(C)NC(=S)N1c1ccc(C)cc1C	0.98	1	0	i
58	Cc1ccc(-c2ccc(/C=N/c3ncn[nH]3)o2)cc1Cl	0.99	-15	-16	i
59	CC(Cc1n[nH]c(=S)o1)c1ccccc1 (centres undefined)	0.96	-4	.	i
60	COC(=O)c1ccc(C(=O)OC)c(NC(=S)N2CCCC(CO)C2)c1 (centres undefined)	0.96	3	.	i

no.	RGS16-Gao	GALR2 ag	Insulin prom inh cell count
49	98	.	.
50	104	0.8	.
51	86	2.1	128
52	96	.	.
53	107	-2.4	141
54	104	0.5	103
55	120	-0.9	75
56	107	-2.1	103
57	76	.	81
58	105	-1.4	121
59	101	.	.
60	99	.	.

# The final 3 entries of the section before are carried over, then new ones follow:
no.	mol	HSV augment primary fold	PKD1 inh	Insulin prom inh	HSV augment
58	Cc1ccc(-c2ccc(/C=N/c3ncn[nH]3)o2)cc1Cl	0.99	-15	-16	i
59	CC(Cc1n[nH]c(=S)o1)c1ccccc1 (centres undefined)	0.96	-4	.	i
60	COC(=O)c1ccc(C(=O)OC)c(NC(=S)N2CCCC(CO)C2)c1 (centres undefined)	0.96	3	.	i
61	Cc1noc(C)c1C(=O)N1CCN(S(=O)(=O)c2cccc(Cl)c2Cl)CC1	0.98	.	.	i
62	COc1cc(CNC2CCCC2)cc(Cl)c1OCc1ccccc1Cl	0.62	0	-33	i
63	CCCn1nc(NC(=O)c2cccs2)c2cc3ccccc3nc21	0.79	1	0	i
64	O=S1(=O)N=C2CCCCCN2C(c2ccc(F)cc2)N1 (centres undefined)	1	-1	.	i
65	COc1ccccc1N1CCN(C(=O)C2c3ccccc3Oc3ccccc32)CC1	0.78	-2	.	i
66	Cn1c(S(=O)(=O)c2ccc([N+](=O)[O-])cc2)nc(Br)c1Br	0.71	.	.	i
67	CC(C)CC(c1nnnn1CCc1ccccc1)N1CCN(C(=O)c2ccco2)CC1 (centres undefined)	0.97	18	-29	i
68	Cc1nc2ccccc2c2c1C(=O)N(C)C2=O	1.2	-6	14	i
69	CCOC(=O)c1nnn2c3ccccc3c(=O)n(C)c12	0.9	.	.	i
70	Cc1ccc(N)c(C(O)(C(F)(F)F)C(F)(F)F)c1	0.89	2	.	i
71	COC(c1ccccc1)c1nnc(CCC(=O)N(C)CCc2ccccc2)o1 (centres undefined)	1.1	2	.	i
72	Cc1ccc(S(=O)(=O)N(Cc2cc3cc4c(cc3[nH]c2=O)OCCO4)CC2CCCO2)cc1 (centres undefined)	0.97	-5	-12	i

no.	RGS16-Gao	GALR2 ag	Insulin prom inh cell count
58	105	-1.4	121
59	101	.	.
60	99	.	.
61	103	.	.
62	113	-0.4	112
63	106	2.0	157
64	107	.	.
65	104	-1.4	.
66	102	.	.
67	100	0.2	126
68	101	-5.0	111
69	102	.	.
70	101	-4.1	.
71	108	.	.
72	98	-0.3	68

# Later entries.
no.	mol	HSV augment primary fold	PKD1 inh	Insulin prom inh	HSV augment
73	COc1cccc(-c2ccc3c(N)c(C(=O)NC4CC4)sc3n2)c1	0.65	.	.	i
74	CCOc1ccccc1NC(=O)CCNC(=O)c1ccc(Cl)cc1	0.98	-2	-64	i
75	N=c1sccn1CC(=O)Nc1ccccc1Cc1ccccc1	0.87	-2	.	i
76	Cc1nc2ccccc2n1CSc1ccccc1	1.1	0	.	i
77	CN(Cc1ccccc1)c1nc2nonc2nc1N1CCCC(CN2CCCC2=O)C1 (centres undefined)	1.1	.	.	i
78	COc1cccc(/C=N/Nc2nc(Nc3ccc([N+](=O)[O-])cc3)nc(N3CCCC3)n2)c1O	0.74	-5	.	i
79	CCOC(=O)C1=C(CN2CCOCC2)NC(=O)NC1c1cc(C)ccc1C (centres undefined)	0.8	2	38	i
80	Cc1cc(C)cc(NC(=O)Cn2c(-c3ccccc3Cl)nc3ccccc32)c1	1.1	8	.	i
81	COC(=O)CN1C(=S)N(c2ccc(Cl)cc2)C(=O)C1CC(=O)Nc1ccccc1 (centres undefined)	0.99	-6	22	i
82	O=C1N(Cc2ccc(F)cc2)CCN1c1ccc(F)cc1	0.9	-2	.	i
83	N#C/C(=C\c1cccnc1)c1nc2c(s1)CCCC2	1	-1	-20	i

no.	RGS16-Gao	GALR2 ag	Insulin prom inh cell count
73	99	.	.
74	96	.	63
75	100	-3.1	.
76	106	-1.5	.
77	105	.	.
78	101	.	.
79	101	-2.3	119
80	108	0.4	.
81	109	-0.2	145
82	100	.	.
83	90	.	81

# Compound profiles, from the list above:
# Record of `CCOC(=O)C1=C(CN2CCOCC2)NC(=O)NC1c1cc(C)ccc1C` (centres undefined) → HSV augment primary fold = 0.8; PKD1 inh = 2; Insulin prom inh = 38; HSV augment = i; RGS16-Gao = 101; GALR2 ag = -2.3; Insulin prom inh cell count = 119
# Record of `COc1ccc(/C=N\NC(=O)COc2ccccc2Cl)cc1Cn1nc(C)cc1C` → HSV augment primary fold = 1.1; PKD1 inh = -2; Insulin prom inh = -11; HSV augment = i; RGS16-Gao = 86; GALR2 ag = 2.1; Insulin prom inh cell count = 128
